Calb biofilm kill: mixtures killing C. albicans biofilm. inhibition, % at 7.6 µM. AID 1242. C. albicans biofilm persisters + clotrimazole, fluorescence viability; primary screen in compound mixtures of four per well. actives 0.02% (n = 120,000);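 active = inhibition above 30.3% in the primary screen of four-compound pools, then above 30% when the compound was retested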;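 note: compounds exposed to preformed 24 h biofilms for 48 h; the number belongs to the whole pool; some results filed as inactive read as strong as hits; inactives centre near 12; 0% = biofilm with clotrimazole alone and 100% = kill control; retested singly at about 60 µM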
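System: C. albicans CAF4-2 wild-type biofilms; Medium: RPMI/MOPS medium, pH 7.0; Reagent: Clotrimazole, 50 µg/mL; Times: biofilm formation 24 h, compound exposure 48 h, 37 °C; Detection: 2-h Alamar Blue fluorescence, 535/590 nm excitation/emission; Evaluation: percent inhibition of biofilm viability.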
* hit, by the source's call. These rows are one share of the data; count on the stated rates, not on these rows.

SMILES | Calb biofilm kill
CCOC(=O)C(CC)/C(C)=N\NC(=O)CCC(=O)Nc1ccc(Cl)cc1Cl (stereo not drawn) | 5.8
CC1(C)CC(=O)C(=Cc2cn(CCC#N)nc2-c2ccc(F)cc2)C(=O)C1 | -1.0
CCOc1ccc(S(=O)(=O)Nc2ccc(O)c(Sc3ncn[nH]3)c2)cc1 | 9.1
CCCCc1ccc(NC(=O)C(C)CC)cc1 (stereo not drawn) | -2.4
CC1(C)C(c2cccs2)=[N+]([O-])C2(CCCCC2=O)N1O (stereo not drawn) | 6.6
O=C(CSc1ccc2nnc(-c3cccs3)n2n1)N1CCCC1 | 9.3
NC(=S)N/N=C/c1ccc2ccccc2c1 | 25.7
Cc1oc(-c2cccs2)nc1CN1CCC(C(=O)N2CCCC2)CC1 | 6.3
Cc1cc(C)c2c(N)c(C(=O)N/N=C/c3cccnc3)sc2n1 | 9.9
COc1ccc(CN(CC2CCC(C(=O)O)CC2)C(=S)Nc2ccccc2C)cc1 (stereo not drawn) | 15.5
CCO[C@@H]1OC(C(=O)N2CCOCC2)=C[C@H](c2ccc(C(F)(F)F)cc2)[C@H]1CCCO | 19.6
CC(=O)c1ccc(C)cc1OC(=O)c1cccc(F)c1 | 15.3
COc1cccc(CC(=O)N2CCCC(CCC(=O)N3CCN(c4ccccn4)CC3)C2)c1 (stereo not drawn) | 15.4
COc1cc(/C=C2\SC(=O)N(c3ccccc3Cl)C2=O)cc([N+](=O)[O-])c1O | 35.2
CCCOc1ccc(C(=O)NCC(c2cccs2)N(C)C)cc1OC (stereo not drawn) | 12.4
CCOC(=O)CN(C(=O)COc1nc(-c2ccccc2)cc(C)c1C#N)c1ccc(F)cc1 | 7.1
COc1cc(N)c(Cl)cc1Cl | 21.5
COCCn1c(=O)[nH]c2cc(C(=O)Nc3cccc(F)c3)ccc2c1=O | 14.6
COc1ccc(C(c2c(NC(C)=O)sc3c2CCCC3)N2CCN(CCO)CC2)cc1OC (stereo not drawn) | 12.9
CCc1cccc(C)c1NC(=O)CN1C(=O)NC(Cc2ccccc2)C1=O (stereo not drawn) | 10.0
COc1cccc(CN2CCN(Cc3cccc4nonc34)CC2CCO)c1 (stereo not drawn) | 5.2
FC(F)(F)c1ccc2c(c1)N1CCCC1CN2 (stereo not drawn) | -9.3
COCCNC(=S)N1CCC(Cc2ccccc2)CC1 | 15.4
CC(=O)NNC(=S)Nc1cccc(F)c1 | 5.5
COc1ccc(Nc2nc(NCC3CCCO3)c3ccccc3n2)c(OC)c1 (stereo not drawn) | 4.4

Continuation.
SMILES | Calb biofilm kill
Cc1sc2nc(CN3CCCCC3)nc(N3CCN(C(=O)c4ccco4)CC3)c2c1C | 16.7
CC[C@@H](C)C(N)c1cn([C@@H](CCC(=O)O)C(=O)N2CCNCC2)nn1 (stereo partly drawn) | 5.2
COc1ccc(-c2nnn(CC(=O)N3CCN(c4ccc(F)cc4)CC3)n2)cc1 | 21.5
COc1ccc(Nc2nc(Nc3ccc(OC)cc3OC)nc(N3CCN(C)CC3)n2)c(OC)c1 | 5.0
NC(=O)c1ccc(NC(=O)COC(=O)c2cccc(Oc3ccccc3)c2)cc1 | 4.5
Fc1ccc(NC(=S)Nc2ccc(Cl)cc2Cl)cc1 | 8.1
Cc1nnc(-c2ccc(Cl)cc2)[nH]c1=O | 12.5
O=C1NC(=O)/C(=C/c2cccc([N+](=O)[O-])c2)N1 | 5.5
CCCCCCOc1ccc(N2C(=O)CC(NCc3ccc(S(N)(=O)=O)cc3)C2=O)cc1 (stereo not drawn) | 13.5
Cc1cccc(NCc2cc(Cl)cc(Cl)c2O)n1 | 15.3
NC(=O)c1nnsc1-c1ccc(-c2snnc2C(N)=O)cc1 | 15.2
O=C(CSc1nc(CCC2CCCC2)nc2ccccc12)NCc1ccc2c(c1)OCO2 | 9.1
COc1ccc(NC(=S)NCCc2c[nH]c3ccccc23)c(OC)c1 | 19.3
Cn1c(SCc2ccccn2)nnc1-c1ccccc1 | 22.7
Cc1ccc(C(=O)NCCc2ccc(S(N)(=O)=O)cc2)o1 | 22.9
Cn1c(=O)c2c(ncn2CC(=O)N/N=C/C(Cl)=C/c2ccccc2)n(C)c1=O | 3.9
COCCCNC(=O)Cn1c(=O)n(Cc2ccc(C(=O)NCCc3ccc(OC)c(OC)c3)cc2)c(=O)c2ccccc21 | 4.8
Cc1ccc(NC(=O)CC2SC(=NCC3CCCO3)NC2=O)cc1Cl (stereo not drawn) | 9.1
CCOC(=O)c1sc2nc3c(SCCC#N)cc(C(=O)c4cc(F)ccc4O)cn3c(=O)c2c1C | 13.7
Cn1nc(C(C)(C)C)c([N+](=O)[O-])c1C(N)=O | 56.6
COc1cc(NS(=O)(=O)c2ccc(NC(=S)NC(=O)CC(C)C)cc2)nc(OC)n1 | 14.0
CC(=O)Nc1ccc2c(c1)OCO2 | 3.5
CCC(=O)N(Cc1cc(=O)[nH]c2ccccc12)c1ccc(C)cc1 | 9.6
CCOC(=O)c1c(C)n(C)c2ccc(OC(C)=O)cc12 | 5.7
O=C(O)c1cc(-c2ccc(Cl)cc2)n(-c2ccc(Cl)cc2)n1 | 14.1

Entries listed so far that have a nitro group on carbon, in the order listed:
SMILES | Calb biofilm kill
COc1cc(/C=C2\SC(=O)N(c3ccccc3Cl)C2=O)cc([N+](=O)[O-])c1O | 35.2
O=C1NC(=O)/C(=C/c2cccc([N+](=O)[O-])c2)N1 | 5.5
Cn1nc(C(C)(C)C)c([N+](=O)[O-])c1C(N)=O | 56.6

(next part)
SMILES | Calb biofilm kill
Cn1ccnc1SCC(=O)Nc1ccc2c(c1)OCO2 | 4.0
CCN(CC)S(=O)(=O)c1ccc(N/N=C/c2cccnc2)nc1 | -5.5
CC1CCCCN1C(=O)CNCC1CCCO1 (stereo not drawn) | 11.5
Cc1noc(NS(=O)(=O)c2ccc(NC(=O)C34CC5CC(C3)CC(n3cnc(Br)n3)(C5)C4)cc2)c1C | 12.8
CCOC(=O)c1ccc(Nc2nnc(C)c3ccccc23)cc1 | 21.1
COc1ccc(S(=O)(=O)N2CCC3(CC2)OCCO3)cc1 | 9.8
CCC1=[N+](CC(=O)c2ccc(C)cc2)CCn2cccc21 | 6.4
Cc1ccc2nc(C)c(C(=O)NN=C3CCN(C)CC3)n2c1 | 16.3
CCn1cc(CNC(=O)CC2C(=O)NCCN2CC(c2ccccc2)c2ccccc2)cn1 (stereo not drawn) | 13.7
N#C/C(=C\c1c(Cl)cccc1Cl)c1nc2ccccc2[nH]1 | 15.1
O=C(CCC(=O)Nc1cccc(Cl)c1)N/N=C/c1cc([N+](=O)[O-])ccc1O | 5.0
Cn1c(C(=O)OC(C(=O)NCC2CCCO2)c2cccnc2)cc2sccc21 (stereo not drawn) | 5.6
O=C(N/N=C/c1ccc([N+](=O)[O-])o1)c1cc(-c2ccc(-c3ccccc3)cc2)nc2ccccc12 | 4.8
Cc1cccc[n+]1CCCCCCCCCC[n+]1ccccc1C | 14.9
CNC(=S)N1CCc2sccc2C1C (stereo not drawn) | 16.2
Cc1cccc(-c2nnnn2-c2cccc(C)c2)c1 | 10.2
CN(c1ccccc1C(=O)Nc1ccc(F)c(Cl)c1)S(C)(=O)=O | 12.5
COc1ccc(S(=O)(=O)N2CCC(C(=O)NCC3CCCO3)CC2)cc1OC (stereo not drawn) | 11.5
CCNC(=S)NNC(=O)c1ccncc1 | 6.6
Fc1ccccc1Cc1noc(CN2CCN(C/C=C/c3ccccc3)CC2)n1 | 8.6
O=C(c1ccc(-c2cccc(Cl)c2)o1)N1CCN(c2ccc([N+](=O)[O-])cc2)CC1 | 13.0
O=C1S/C(=C/c2ccccc2F)C(=O)N1CCN=C1NS(=O)(=O)c2ccccc21 | 8.9
CCOc1ccc(NC(=O)Nc2ccccc2SC)cc1 | 0.1
CCc1[nH]nc2c1C(c1ccc(C)o1)C(C#N)=C(N)O2 (stereo not drawn) | 11.5
COc1ccc(NC(=O)NC23CC4(C)CC(C)(CC(C)(C4)C2)C3)cc1OC | 14.0

Among those listed so far, 2 have a CF3 group.
SMILES | Calb biofilm kill
CCO[C@@H]1OC(C(=O)N2CCOCC2)=C[C@H](c2ccc(C(F)(F)F)cc2)[C@H]1CCCO | 19.6
FC(F)(F)c1ccc2c(c1)N1CCCC1CN2 (stereo not drawn) | -9.3

Continued:
SMILES | Calb biofilm kill
Nn1cnnc1SCC(=O)N(C1CCCCC1)C1CCCCC1 | 7.8
CC(C)Sc1nnc(NC(=O)CCc2ccccc2)s1 | 12.3
CC(NC(=O)C1CCCC1)C1CC2CCC1C2 (stereo not drawn) | 1.4
CCCc1[nH]n(-c2ccc([N+](=O)[O-])cc2)c(=O)c1C=NCCN1CCNCC1 | 19.7
COCCCn1c(C)c(C(C)=O)cc(NC(=O)c2ccccc2)c1=O | 8.8
COc1ccc(/C(C)=N/NC(=S)NCCc2ccccc2)cc1 | 10.0
CC(=O)C(Cc1ccccc1)NC(=O)CCl (stereo not drawn) | 12.7
COc1cc(C2Nc3ccc4ncccc4c3C3=C2C(=O)CCC3)cc(OC)c1OC (stereo not drawn) | 10.8
O=C(Nc1ccccc1)n1ccc(-c2ccc(-n3ccnc3)cc2)n1 | 4.8
COc1ccc([N+](=O)[O-])cc1NC(=O)COC(=O)c1ccc(O)cc1 | 17.1
O=C(N/N=C/c1ccco1)C1CC(=O)N(c2ccccc2)C1 (stereo not drawn) | -2.5
O=C(CCl)NCCNC(=O)c1cc(OCC(F)(F)F)ccc1OCC(F)(F)F | 14.3
Cc1ccc(S(=O)(=O)CC(=O)NC(C)(C)C)cc1 | 8.8
Cc1nn(-c2ccccc2)c(C)c1C(=O)Oc1ccccc1 | 15.2
Cc1nn(Cc2ccccc2)c(Cl)c1/C=C/C(=O)OCC(=O)N1CCCC1=O | 2.7
CCn1c(C)nc2cc(C(=O)N/N=C(\C)c3ccccc3O)ccc21 | 3.1
COC(=O)c1ccccc1NC(=O)COC(=O)C1CCCCC1 | 18.9
COc1ccc(-n2nc(C(=O)NCC(=O)N3CCN(Cc4ccc5c(c4)OCO5)CC3)c3ccccc3c2=O)cc1OC | 2.2
CCOc1cc(CNC2CCCC2)ccc1OCc1ccccc1Cl | 20.3
CCOC(=O)C(CC)Sc1ccc2nnc(-c3cccnc3)n2n1 (stereo not drawn) | 6.6
COc1ccccc1/C=C(/C(=O)OCC(=O)Nc1ccccc1C)c1ccccc1 | 10.0
O=C(CCc1n[nH]c(=O)[nH]c1=O)N/N=C/c1ccco1 | 20.9
Cc1cc(C)c(NC(=O)C2CC(=O)N(Cc3ccccc3)C2)c(C)c1 (stereo not drawn) | 1.3
COc1ccc(S(=O)(=O)Nc2cc([N+](=O)[O-])ccc2OC)cc1 | 18.9
COc1ccc(S(=O)(=O)N2CN(CCc3ccc(OC)c(OC)c3)c3nc4ccccc4nc32)cc1 | 0.5

(continued)
SMILES | Calb biofilm kill
C/C(=N/NC(=O)CSc1ccccn1)c1ccc([N+](=O)[O-])cc1 | 3.1
O=C(O)c1sc2cc(C(F)(F)F)cnc2c1-c1ccccn1 | 12.4
Cc1ccc(NC(=O)CO/N=C(\N)c2nonc2N)cc1C | -1.8
CCOCCCn1c(C)nc2c[n+](CC(=O)c3ccc4ccccc4c3)cc(Br)c21 | 9.6
Cc1ccc2c(c1)oc(=O)n2CC(=O)c1ccccc1 | 20.7
O=C(Cn1cc(C(F)(F)F)ccc1=O)N/N=C/c1ccc(F)cc1 | 13.6
Cc1cc(C(=O)N/N=C/c2cccs2)n[nH]1 | 11.9
CN=Cc1nc(-c2ccccc2)oc1O | 12.5
CC(=O)NS(=O)(=O)c1ccc(N=c2ssc3c2-c2ccc(C)cc2NC3(C)C)cc1 | 6.3
COc1cccc(-c2ncc3ccccn23)c1 | 4.8
O=C(CN1C(=O)/C(=C/c2cccc(Br)c2)SC1=S)N1CCCC1 | 17.6
CN(CCc1cn[nH]c1)Cc1nc(Cc2ccccc2)no1 | 3.2
CC(C)=C(NC(=O)c1ccccc1)C(=O)N/N=C(\C)c1ccccc1O | 10.4
Cc1ccc(/C=C2\SC(N3CCCC3)=NC2=O)cc1 | 5.0
O=C1C=C(NCCc2ccccc2)C2(CCCCC2)O1 | 22.7
COC(=O)[C@H]1C[C@@H]1[C@H](NC(=O)c1cc(C)on1)c1ccccc1 | 12.6
CC(=O)NC1C(=O)N=C(SCC(=O)Nc2sc3c(c2C#N)CCCCCC3)NC1=O (stereo not drawn) | 15.3
COc1ccc(C)cc1NC(=O)C1CCN(C(=O)Cc2ccccc2)CC1 | 8.6
COc1ccccc1C(=O)N/N=C1/NC(=O)CC(C(=O)Nc2ccccc2)S1 (stereo not drawn) | 14.8
Cc1occc1-c1nnc(SCC(N)=O)o1 | 13.7
CSc1ncccc1C(=O)OCC(=O)N(C)C | 4.8
CC(C)CN(C(=O)CSc1nnnn1-c1ccccc1)c1c(N)n(CC(C)C)c(=O)[nH]c1=O | 4.5
O=C(Nc1ccccc1)c1ccc[n+](Cc2ccc([N+](=O)[O-])cc2)c1 | 14.5
NS(=O)(=O)c1cccc(NC(=O)CSc2nc3nc(-c4cccs4)cc(C(F)(F)F)c3c(=O)[nH]2)c1 | 11.4
COc1ccc(Br)cc1/C=N/n1c(C)nnc1C | 14.7
O=c1cc(CN2CCN(S(=O)(=O)c3ccc4ccccc4c3)CC2)nc2sccn12 | 17.7
O=c1c2c3c(sc2ncn1/N=C/c1cccnc1)CCCC3 | 15.1
COc1ccc(OCC(O)CNS(=O)(=O)c2cccc(Cl)c2)cc1 (stereo not drawn) | 15.8
CC1=NN(C(=O)COc2ccc(C)c(C)c2)C(O)(c2ccc(Cl)cc2)C1 (stereo not drawn) | 4.2
O=C(CSc1nnc(C2COc3ccccc3O2)o1)N1CCCC1 (stereo not drawn) | 13.6

Four records picked at random from those above, as already listed:
SMILES | Calb biofilm kill
O=C(Cn1cc(C(F)(F)F)ccc1=O)N/N=C/c1ccc(F)cc1 | 13.6
O=C(N/N=C/c1ccc([N+](=O)[O-])o1)c1cc(-c2ccc(-c3ccccc3)cc2)nc2ccccc12 | 4.8
O=C(CSc1ccc2nnc(-c3cccs3)n2n1)N1CCCC1 | 9.3
COC(=O)[C@H]1C[C@@H]1[C@H](NC(=O)c1cc(C)on1)c1ccccc1 | 12.6

Compound activity: PubChem BioAssay, PCMD
